Source: PubChem
Mtb H37Rv: Mycobacterium tuberculosis H37Rv growth inhibition, putative kinase inhibitor library, confirmatory dose response (AID 2842); M. tuberculosis H37Rv growth inhibition; higher % means a stronger effect; some inactives read as strong as hits; one-dose inhibition, % at 10 µg/mL; IC90 in µg/mL for titrated hits; 24,000 tested, 5.2% active;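 active = confirmed in a dose series; about a fifth of its hits are not listed in these tables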;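 note: bacteria incubated one week before Alamar blue readout; 0% = bacteria only wells and 100% = bacteria with high antibiotic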
* = called active by the depositor.

compound,Mtb H37Rv
Clc1ccc(-c2nnc3ccc(SCc4cccnc4)nn23)cc1,2.1%
O=C(c1ccco1)N1CCN(C(c2cccc(F)c2)c2sc3ncnn3c2O)CC1 (stereo unspecified),0.5%
CCOC(=O)c1nn(-c2ccc(F)cc2)c(=O)c2c(NC(=O)CC3CCCCC3)scc12,-11.2%
Cc1cccc(C(=O)Nc2cccc(-c3ccc(N4CCOCC4)nn3)c2)c1,-0.3%
CCCCCn1c(SCc2ccc(C)cc2)nc2c1c(=O)[nH]c(=O)n2C,5.6%
Cn1c(=O)[nH]c(=O)c2c1nc(N1CCc3ccccc3C1)n2CCCc1ccccc1,-2.2%
O=C(Nc1c(C(=O)Nc2ccccc2F)oc2ccccc12)c1ccccc1C(F)(F)F,61.8%
COc1ccc(-n2nc3c(c2NC(=O)c2ccccc2Br)CS(=O)C3)cc1 (stereo unspecified),9.2%
COC(=O)c1ccc(C(=O)NC(=S)Nc2sc3c(c2C#N)CCCCC3)cc1,-9.0%
O=C(CCOc1ccccc1)Nc1nnc(-c2ccc3c(c2)CCCC3)o1,18.1µg/mL*
CCn1c(SCC(=O)NCc2ccccc2)nc2c(c1=O)SC(C)C2 (stereo unspecified),3.5%
COc1ccccc1-c1nnc(NC(=O)/C=C\c2ccc3c(c2)OCO3)s1,-4.6%
Nc1nc2oc3ccccc3c(=O)c2cc1C(=O)NCc1ccccc1,-3.5%
O=C(NCCn1nc(-c2ccc(F)cc2)ccc1=O)c1cccnc1,-12.4%
O=C(Nc1nc(-c2ccc(Cl)cc2Cl)cs1)c1ccc(S(=O)(=O)N2CCCC2)cc1,-7.6%
O=C(CSc1ccc2nnc(-c3cccs3)n2n1)N1CCOCC1,-1.4%
Cc1ccc2cc(CCNC(=O)c3ccc(C)c([N+](=O)[O-])c3)c(=O)[nH]c2c1,0.3%
CC(=O)N1CCc2c(sc(NC(=O)c3cc(Cl)cc(Cl)c3)c2-c2nc3ccccc3s2)C1,3.9%
CCS(=O)(=O)c1cccc(C(=O)Nc2nc3ccc(S(N)(=O)=O)cc3s2)c1,-0.5%
Cc1cc2cc(CNC(=O)NC3CC(=O)N(c4ccc5c(c4)OCCO5)C3)ccc2[nH]1 (stereo unspecified),0.3%
CCN1CCN(C(c2ccco2)c2sc3ncnn3c2O)CC1 (stereo unspecified),-2.3%
CC(=O)Nc1ccc(Nc2ncnc(N)c2[N+](=O)[O-])cc1,14.6%
CCOC(=O)c1[nH]c2ccccc2c1NC(=S)Nc1ccccc1OC,4.1%
Cc1nnc(NC(=O)c2ccc(N3C(=O)CCC3=O)cc2)s1,-2.9%

Of the compounds above, these contain a furan ring, fused or not.
compound,Mtb H37Rv
O=C(c1ccco1)N1CCN(C(c2cccc(F)c2)c2sc3ncnn3c2O)CC1 (stereo unspecified),0.5%
O=C(Nc1c(C(=O)Nc2ccccc2F)oc2ccccc12)c1ccccc1C(F)(F)F,61.8%
CCN1CCN(C(c2ccco2)c2sc3ncnn3c2O)CC1 (stereo unspecified),-2.3%

Going on with the list.
compound,Mtb H37Rv
O=C(CSc1ccc2nnc(-c3ccccn3)n2n1)NCc1ccccc1,13.7%
CN1C(=O)c2cccc(NC(=O)/C=C/c3ccccc3Cl)c2C1=O,2.1%
COc1ccc2c(c1)c(=O)c(C(=O)c1ccccc1)cn2Cc1ccc(C)cc1,57.8%
O=C(CCCCl)Nc1c(C(=O)Nc2ccc3c(c2)OCCO3)oc2ccccc12,30.3%
COc1ccc2nc(-c3ccc(C)c(NC(=O)c4ccccc4F)c3)cn2n1,5.0%
Cc1cc2nnc(SCC(=O)Nc3ccccc3C#N)n2c2ccccc12,-11.7%
O=C(CSc1ccc2nnc(-c3cccs3)n2n1)Nc1cccc([N+](=O)[O-])c1,-2.0%
CS(=O)(=O)c1cccc(-c2nnc(NC(=O)c3cccs3)o2)c1,-41.8%
COc1ccc(CNc2nccn(-c3cc(C)c(Cl)cc3OC)c2=O)cc1,18.1µg/mL*
Cc1cc(C)cc(N2CCCn3c2nc2c3c(=O)n(CC(=O)O)c(=O)n2C)c1,-5.4%
COc1ccc(Nc2ncnc(N)c2[N+](=O)[O-])c(OC)c1,0.5%
COc1cccc2c1OC(c1ccncc1)N1N=C(c3cc(C)ccc3O)CC21 (stereo unspecified),0.6%
O=C(Nc1nc(-c2ccc3c(c2)OCO3)cs1)c1ccc(F)cc1,-8.7%
Oc1ccc(-c2n[nH]c(C(F)(F)F)c2-c2nc3ccccc3s2)c(O)c1,14.6%
COc1ccc(NC(=O)CSC2=Nc3cccnc3Nc3ccccc32)cc1OC,13.5%
CC1CCc2sc(NC(=O)c3ccc(S(=O)(=O)N4CCCC4)cc3)c(C(N)=O)c2C1 (stereo unspecified),16.4%
Cc1ccc(-n2c(SCC(=O)NCC3CCCO3)nc3c(c2=O)SCC3)cc1 (stereo unspecified),13.3%
Cc1ccc(S(=O)(=O)Nc2ccccc2C(=O)Nc2nnc(-c3ccc4c(c3)CCCC4)o2)cc1,8.9%
Cn1c(=O)[nH]c(=O)c2c1nc(N1CCN(c3cccc(Cl)c3)CC1)n2CCSc1nnnn1-c1ccccc1,16.5%
COC(=O)c1ccc2nc(NC(=O)c3ccc(OC)cc3)sc2c1,9.3%
Cc1ccc2cc(CCNC(=O)c3ccc(Br)o3)c(=O)[nH]c2c1C,-7.5%
O=S(=O)(NCCc1ccccn1)c1ccc2ccccc2c1,6.8%
COc1ccccc1NC(=O)c1oc2ccccc2c1NC(=O)c1ccccc1Cl,2.1%
O=C(COc1ccccc1C1CC(c2cccs2)=NN1C(=O)c1ccccc1)N1CCCC1 (stereo unspecified),6.4%
CC1CCc2c(sc3ncnc(NCCN4CCOCC4)c23)C1 (stereo unspecified),2.2%
CC(C)CC(=O)Nc1c(C(=O)Nc2cccc(F)c2)oc2ccccc12,-1.5%
COc1cc2c3nnc(-c4ccc(C)c(C)c4)c-3cn(Cc3cccc(F)c3)c2cc1OC,47.2%
CC1=C(C(=O)Nc2ccccn2)C(c2ccc3c(c2)OCO3)n2ncnc2N1 (stereo unspecified),-2.9%
NC(=O)c1nc(-c2ccc([N+](=O)[O-])cc2)nc2c1[nH]c(=O)n2-c1ccc(Cl)cc1,-0.9%
CCOC(=O)c1sc(NC(=O)CSc2ncnc3sc(C)c(C)c23)c(C(=O)OCC)c1C,-9.5%
O=C1C(=O)N(c2nccs2)C(c2cccs2)/C1=C(/O)c1ccc(F)cc1 (stereo unspecified),-3.9%
O=C(O)CN1C(=O)S/C(=C\c2cccc([N+](=O)[O-])c2)C1=O,-37.4%
CC(=O)C(C)n1c(CN2CCN(C(=O)c3ccco3)CC2)nc2c1c(=O)n(C)c(=O)n2C (stereo unspecified),-3.9%
COc1ccccc1NC(=O)c1nnn(CC(=O)Nc2cccc(C)c2)c1N,1.1%
COc1ccc(-n2c(=O)[nH]c3c(C(N)=O)nc(C4CCCCC4)nc32)cc1,8.8%
Cc1ccc(Cl)cc1NC(=O)C(=O)Nc1cc2c3c(c1)CCN3C(=O)CC2,2.3%

Ordered by number of heavy atoms (highest first): some entries from above
compound,Mtb H37Rv
CCOC(=O)c1sc(NC(=O)CSc2ncnc3sc(C)c(C)c23)c(C(=O)OCC)c1C,-9.5%
NC(=O)c1nc(-c2ccc([N+](=O)[O-])cc2)nc2c1[nH]c(=O)n2-c1ccc(Cl)cc1,-0.9%
O=C(O)CN1C(=O)S/C(=C\c2cccc([N+](=O)[O-])c2)C1=O,-37.4%

Other entries follow.
compound,Mtb H37Rv
COc1ccc(-c2nnc3c4cc5c(cc4n(Cc4ccc(Cl)cc4)cc2-3)OCO5)cc1,14.8%
CCOC(=O)c1nn(-c2ccc(Cl)cc2)c(=O)c2c(NC(=O)c3ccccc3Br)scc12,-17.7%
COc1ccc(OC)c2[nH]c(=O)c(CCNC(=O)c3cccc([N+](=O)[O-])c3)cc12,7.6%
COc1ccc(-c2nc(SCC(=O)Nc3ccc(C)cc3)c3c(=O)n(C)c(=O)n(C)c3n2)cc1,6.8%
COc1ccc(-n2ccnc(SCC(=O)Nc3cc(Cl)ccc3OC)c2=O)cc1,-0.7%
CCCc1nc(SCC(=O)Nc2ccc(C)c(Cl)c2)c2c(=O)n(C)c(=O)n(C)c2n1,0.0%
CC1CCc2c(sc(NC(=O)C(C)Oc3cccc(Br)c3)c2C(N)=O)C1 (stereo unspecified),-9.9%
O=C(Nc1ccccc1)Nn1cnc2sc3c(c2c1=O)CCCC3,0.6%
Clc1ccc(-n2ncc3c(Nc4cccc5ccccc45)ncnc32)cc1,3.3%
Cc1ccc(-c2nnc(NCCN3CCOCC3)c3ccccc23)cc1,1.6%
Cc1[nH]nc2c1C(c1ccc(OCc3ccccc3)cc1)C(C#N)=C(N)O2 (stereo unspecified),0.7%
CCc1ccc(NC(=O)C(=O)c2c[nH]c3ccccc23)cc1,12.1%
CC(=O)Nc1ccc(Nc2nc(N3CCOCC3)nc(N3CCOCC3)n2)cc1,-12.9%
CCCCC(Sc1nnc(NC(=O)C2CC(=O)N(c3ccccc3OC)C2)s1)C(=O)O (stereo unspecified),2.0%
COc1ccc(-n2nc3c(c2NC(=O)COc2ccccc2)CSC3)cc1,5.0%
CC(=O)c1cccc(Nc2nc(-c3ccc(C)cc3)nc3ccccc23)c1,0.6%
O=C(Nc1ccc2c(c1)OCO2)c1cnc2n(c1=O)CCS2,0.5%
C=CCn1c(N/N=C/c2cccc(O)c2)nc2c1c(=O)[nH]c(=O)n2C,2.5%
COc1cc(N2C(=O)NC3CC2(C)Oc2ccc([N+](=O)[O-])cc23)cc(OC)c1OC (stereo unspecified),-0.1%
Fc1cccc2sc(Nc3nc(-c4cccs4)cs3)nc12,25.4µg/mL*
CC(C)CSc1nc2c(c(=O)n(C)c(=O)n2C)n1Cc1ccc(F)cc1,-13.1%
COc1ccc(-n2c(=O)[nH]c3c(C(N)=O)nc(-c4ccc(C(C)C)cc4)nc32)c(OC)c1,-2.2%
CSc1nc2ccc3nc(NC(=S)NC(=O)c4ccc(C)cc4)sc3c2s1,2.5%
Cn1c(=O)c2c(nc(N3CCCCC3)n2CCSc2nc3ccccc3s2)n(C)c1=O,22.7%

Next section, starting with the last 2 of the part before.
| smiles | Mtb H37Rv |
| --- | --- |
| CSc1nc2ccc3nc(NC(=S)NC(=O)c4ccc(C)cc4)sc3c2s1 | 2.5% |
| Cn1c(=O)c2c(nc(N3CCCCC3)n2CCSc2nc3ccccc3s2)n(C)c1=O | 22.7% |
| CC1CCCN(S(=O)(=O)c2ccc(C(=O)Nc3ccccc3-c3nc4ccccc4s3)cc2)C1 (stereo unspecified) | -2.3% |
| O=C(Nc1nnc(-c2ccccc2)s1)c1ccccc1F | 6.2% |
| O=C(Oc1c(CN2CCOCC2)cc(Cl)c2cccnc12)c1ccco1 | 62.6% |
| O=C(CCc1ccccc1)N(Cc1cccnc1)c1nc2c(Cl)cccc2s1 | 84.5% |
| CCc1nc(SCc2ccccc2C)n[nH]1 | 11.1% |
| CCC(CC)C(=O)Nc1c(C(=O)Nc2ccc(OC(F)(F)F)cc2)oc2ccccc12 | -0.2% |
| COc1ccccc1NC(=O)c1oc2ccccc2c1NC(=O)COc1ccc(Cl)cc1 | 15.7% |
| CCOC(=O)c1c(NC(=O)c2cccc(F)c2)sc2c1CC(C)(C)NC2(C)C | 3.1% |
| O=C1Nc2ccc(S(=O)(=O)N(CCO)CCO)c3cccc1c23 | -16.8% |
| CC(=O)c1c(C)nn(CC(O)COc2ccc(C(=O)c3ccc(Cl)cc3)cc2)c1C (stereo unspecified) | -8.2% |
| CC(=O)c1ccc(NC(=O)CC2Nc3ccccc3NC2=O)cc1 (stereo unspecified) | -17.1% |
| Cn1c(=O)c2c(nc(SCCN3CCOCC3)n2Cc2ccccc2)n(C)c1=O | 0.8% |
| CCOc1ccc(N2CCn3c2nc2c3c(=O)n(CC(=O)O)c(=O)n2C)cc1 | -6.1% |
| Cc1ccc(NS(=O)(=O)c2ccc(NC(=O)C3CCCCC3C(=O)O)cc2)c(C)c1 (stereo unspecified) | 61.0% |
| CS(=O)(=O)c1cccc(C(=O)N(Cc2ccccn2)c2nc3c(F)cccc3s2)c1 | -3.9% |
| CCOc1ccc(C(=O)Nc2sc3c(c2C#N)CCN(C(C)=O)C3)cc1 | -4.7% |
| COc1cc(OC)cc(C(=O)Nc2nnc(-c3ccco3)o2)c1 | 83.5% |
| COc1ccc(C(=O)N(CCCn2ccnc2)c2nc3ccccc3s2)cc1OC | 9.6% |
| COC(=O)C1=C(NC(=O)c2cccc([N+](=O)[O-])c2)CCS1 | 2.4% |
| Cc1cc2cc(CCNC(=O)c3ccc(Cl)cc3)c(=O)[nH]c2cc1C | 3.8% |
| COc1ccc(C(=O)c2cn(CC(=O)Nc3ccc4c(c3)OCCO4)c3cc4c(cc3c2=O)OCO4)cc1 | 3.1% |
| O=C(Nc1nc(-c2cc(Cl)ccc2Cl)cs1)c1cc(-c2ccccc2)nc2ccccc12 | 17.2% |
| CCOC(=O)c1nn(-c2ccc(C)cc2)c(=O)c2c(NC(=O)CCCc3ccccc3)scc12 | 4.1% |
| N#Cc1c(/N=C/c2c(O)ccc3ccccc23)sc2c1C1CCN2CC1 | -4.3% |
| Cn1c(Cn2c(=O)sc3ccccc32)nnc1SCC(=O)c1ccccc1 | 0.3% |
| COc1cccc(-c2nnc(NC(=O)c3ccccc3Br)o2)c1 | 2.17µg/mL* |
| COc1ccc(Cn2cc(C(=O)c3ccc(Cl)cc3)c(=O)c3cc(OC)c(OC)cc32)cc1 | -6.5% |
| COC(=O)C(C)Sc1nnc2[nH]c(=O)c(C)c(C)n12 (stereo unspecified) | 7.8% |
| Cn1c(=O)c2c(nc(N3CCN(Cc4ccccc4)CC3)n2CCSc2nnnn2-c2ccccc2)n(C)c1=O | -1.8% |
| O=C(Nc1nc(-c2cc([N+](=O)[O-])cs2)cs1)c1ccno1 | 77.7% |
| Cc1nc2ccc3nc(NC(=O)C45CC6CC(CC(C6)C4)C5)sc3c2s1 | 2.6% |
| O=C(Nc1nc(-c2cc3ccccc3oc2=O)cs1)c1ccc2ccccc2c1 | 0.3% |
| O=C(Nc1nnc(-c2ccco2)o1)c1ccc([N+](=O)[O-])s1 | 0.8% |
| Cc1ccc(-c2nnc(NC(=O)c3ccc([N+](=O)[O-])o3)o2)c(C)c1 | 0.69µg/mL* |

A portion of the library. The share of hits here may be higher or lower than overall.
